Screening data (PubChem)
Cruzain inh noDet = qHTS Assay for Promiscuous and Specific Inhibitors of Cruzain (without detergent) | hit rate 2.3% among 200,000 | purified cruzain, Z-FR-AMC fluorescence, no detergent | Potency, µM, for the others: max response, negative = inhibition, hits mostly inhibitors | AID 1476, 2009 | Cruzipain (Trypanosoma cruzi), P25779; active = well fitted curve in the direction sought with a large enough effect; inconclusive = small, poorly fitted or top-dose-only effect, or another doubt; inactive = no such curve, though single readings can be large; an effect the other way counts as inactive or inconclusive;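 also: plate controls were enzyme without inhibitor for no effect and buffer without enzyme for full effect; nearly all actives have a fitted effect of over 40% in size; top concentration of the series not given in the record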
Target sequence (P25779 123-467 limits assumed): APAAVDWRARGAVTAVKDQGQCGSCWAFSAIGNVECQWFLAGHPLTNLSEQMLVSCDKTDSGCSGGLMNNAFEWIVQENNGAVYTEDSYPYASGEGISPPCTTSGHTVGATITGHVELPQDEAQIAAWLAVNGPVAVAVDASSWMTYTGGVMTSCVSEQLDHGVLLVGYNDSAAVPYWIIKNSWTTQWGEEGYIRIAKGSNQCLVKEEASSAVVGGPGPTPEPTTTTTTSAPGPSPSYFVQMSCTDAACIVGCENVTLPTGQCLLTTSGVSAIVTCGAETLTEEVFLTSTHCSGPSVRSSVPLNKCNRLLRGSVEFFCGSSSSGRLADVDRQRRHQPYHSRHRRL
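Detergent-free condition (0.00005% Triton X-100) in acetate buffer pH 5.5 with DTT. 1.5 nM enzyme and compound were pre-mixed 15 min, then 2 uM Z-FR-AMC substrate added; reaction progress from fluorescence change between first and third reads (60 s).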
Lassa entry inh = qHTS for Inhibitors of binding or entry into cells for Lassa Virus; Lassa virus pseudotype entry inhibition, cell reporter; control for the full effect not named in the record; Potency, µM (top dose mostly 37.9 µM), without a hit: at the highest dose activity change, negative = inhibition, most hits filed as inhibitors; hit rate 1.2% among 300,000; AID 540256, 2011; active means well fitted inhibition curve with a large enough effect; inconclusive means small, poorly fitted or top-dose-only effect, or effect the other way; inactive means flat fitted curve, though single readings scatter; tested in HEK293 cells; also: % is scaled to controls: 0 for no effect and ±100 for the full control effect; nearly all actives have a fitted effect of over 50% in size; luciferase read-out
Cruzain inh Det = qHTS Assay for Promiscuous and Specific Inhibitors of Cruzain (with detergent); Cruzipain (Trypanosoma cruzi), P25779; purified cruzain, Z-FR-AMC fluorescence, 0.01% Triton; Potency, µM, inactives show max response, negative = inhibition, most hits filed as inhibitors; hit rate 0.43% among 200,000; AID 1478, 2009; active = well fitted curve in the direction sought with a large enough effect; inconclusive = small, poorly fitted or top-dose-only effect, or another doubt; inactive = no such curve, though single readings can be large; an effect the other way counts as inactive or inconclusive;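 also: plate controls were neutral wells for no effect and buffer without enzyme for full effect; nearly all actives have a fitted effect of over 40% in size; top concentration of the series not given in the record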
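Sodium acetate buffer (100 mM, pH 5.5) containing 5 mM DTT and 0.01% Triton X-100 hosted 1.5 nM cruzain and test compound for 15 min at room temperature. Cleavage of 2 uM Z-FR-AMC was then tracked by fluorescence.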
Marburg entry inh = qHTS for inhibitors of binding or entry into cells for Marburg Virus. Marburg virus pseudotyped entry inhibition, cell reporter; control for the full effect not named in the record; about a third of the inactives were read at about 46 µM. Potency, µM (doses to about 37.8 µM), for the others: top-dose activity change, negative = inhibition, usual class: inhibitors. hit rate 1.8% among 300,000; active = well fitted inhibition curve with a large enough effect; inconclusive = small, poorly fitted or top-dose-only effect, or effect the other way; inactive = flat fitted curve, though single readings scatter; tested in HEK293 cells; about a fifth of its hits are not listed in these tables; also: % is scaled to controls: 0 for no effect and ±100 for the full control effect; luciferase read-out
NS1 function inh = qHTS Assay for Inhibitors of Influenza NS1 Protein Function | Potency, µM (highest dose often 46.1 µM), without a hit: at the highest dose activity, positive = more growth | S. cerevisiae slowed by influenza A NS1, growth recovery by OD600 | hit rate 0.4% among 270,000 | AID 2326, 2010; also: actives are rising curves; nearly all actives have a fitted effect of over 50% in size
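Compounds were scored for reversing the slow growth caused by influenza A NS1 in S. cerevisiae, measured by optical density at 600 nm. Assay medium contained 2% galactose at pH 6.0; NS1-free yeast of the same strain were the positive control.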
RE007 growth inh = qHTS Assay for Inhibitors of the HIV-1 protein Vpr | S. pombe RE007 Vpr strain, BacTiter-Glo ATP luminescence, 24 h; control for the full effect not named in the record | Potency, µM (titrated, usually from 92.2 µM), without a hit: at the top dose activity change, negative = less growth | hit rate 0.21% among 360,000 | AID 651644, 2012; active = well fitted falling curve with a large enough effect; inconclusive = small, poorly fitted or top-dose-only effect; inactive = no such curve, though single readings can be large or run the other way;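 also: % is scaled to controls: 0 for no effect and ±100 for the full control effect; nearly all actives have a fitted effect of over 50% in size; the assay follows cell death caused by Vpr and the record does not say whether a fall means rescue or toxicity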
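Fission yeast RE007 carrying one integrated HIV-1 vpr copy, seeded at OD 0.01 in PMG+AL medium with 23 nL pinned compound. Grown 24 h at 30 degrees; viability read by BacTiter-Glo luminescence after 5 min.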
StopGo reporter = High Throughput Screening for Foot and Mouth Disease Virus Antivirals | human cells with a luciferase reporter of 2A StopGo recoding; control for the full effect not named in the record | Potency, µM (top dose mostly 57.9 µM), inactives show top-dose signal change, negative = less light | hit rate 1.2% among 410,000 | AID 1159524, 2015; active = well fitted falling curve with a large enough effect; inconclusive = small, poorly fitted or top-dose-only effect; inactive = no such curve, though single readings can be large or run the other way; tested in HEK293T cells; also: % is scaled to controls: 0 for no effect and ±100 for the full control effect; nearly all actives have a fitted effect of over 45% in size; luciferase light after 4 h
SARS PLpro yeast = qHTS of Yeast-based Assay for SARS-CoV PLP. S. cerevisiae expressing SARS-CoV PLpro, growth rescue; control for the full effect not named in the record. Potency, µM (titrated, usually from 32.9 µM), without a hit: at the top dose activity, positive = growth rescue. hit rate 0.19% among 330,000; also: 0% is about no effect; nearly all actives have a fitted effect of over 55% in size; growth read by luminescence after 48 h
Active calls of the source: *; ? = inconclusive; nt = no result given; & = joins results of further samples; [ ] = another dose, or the depositor's remark. Unless noted, calls follow the shape of the dose curve; as a rule, active means well fitted rising curve with a large enough effect; inconclusive means small, poorly fitted or top-dose-only effect; inactive means no such curve, though single readings can be large or run the other way. Potency is read from the fitted curve at half-maximal effect.

Structure	Cruzain inh noDet	Lassa entry inh	Cruzain inh Det	Marburg entry inh	NS1 function inh	RE007 growth inh	StopGo reporter	SARS PLpro yeast
Cc1sc2nc(CSC(C)C(=O)Nc3ccc(C#N)cc3)[nH]c(=O)c2c1C (stereo not given)	nt	?	nt	-8%	nt	9%	-10%	-8%
Cc1cccc(N2CCN(S(=O)(=O)c3cc(Cl)ccc3Cl)CC2)c1C	22%	-6%[46.1 µM]	-1.9%	-1%[46.1 µM]	nt	nt	0%	nt
CC(/C=C/c1ccccc1)=N\NC(=O)c1ccc(Br)cc1	nt	?	nt	-4%[46.1 µM]	nt	1%	1%	1%
Fc1ccc(CN2CCN(c3ncnc4scc(-c5ccc(F)cc5)c34)CC2)cc1	nt	nt	nt	nt	6%	-11%	?	-1%
CC12CCC(c3c(CO)nn(-c4ccccc4)c31)C2(C)C (stereo not given)	7%	3%	5.0%	-3%	-5%	1%	1%	0%
CCN(CC)CCN(C(=O)c1cc2ccccc2cc1OC)c1nc2ccc(F)cc2s1	nt	-20%[46.1 µM]	nt	5.6µM*	-11%	-5%	-29%	9%
CC12CCC(C(=O)Nc3cccc(Cl)c3)(C(Br)C1=O)C2(C)C (stereo not given)	-14%	?	-3.7%	?	-43%	2%	?	-7%
CC1CC(C)CN(C(=O)COC(=O)CN2C(=O)c3ccccc3C2=O)C1 (stereo not given)	nt	-1%[46.1 µM]	nt	6%[46.1 µM]	nt	7%	-9%	-14%
Cc1ccc(S(=O)(=O)/N=C(\N)c2ccc(F)cc2)cc1	nt	nt	nt	nt	3%	-2%	6%	0%
O=c1cc(-c2ccccc2)[nH]c2[nH]n(-c3ccccc3)c(=O)c12	-17%	8%	-1.4%	14%	15%	7%	2%	3%
COCCn1c(-c2ccc3ccccc3c2)nc2c1c(=O)[nH]c(=O)n2CC(C)C	nt	?	nt	-18%[46.1 µM]	6%	-12%	-14%	3%
COc1ccc(C(=O)COC(=O)c2cc3ccccc3oc2=O)c(OC)c1	nt	8%	nt	19%[46.1 µM]	nt	-3%	-2%	1%
CCOc1ccccc1/C=N/NC(=O)c1cccc(Cl)c1	?	-3%	-4.0%	?	-9%	nt	-3%	9%
COc1ccc(CCNCC(O)Cn2ccc3ccccc32)cc1OC (stereo not given)	nt	nt	nt	nt	1%	3%	-6%	0%
CC1CCN(S(=O)(=O)c2cccc(S(=O)(=O)N3CCOCC3)c2)CC1	?	8%	-7.5%	9%	-2%	16%	-6%	2%
CC(=O)NC(CCS(C)(=O)=O)C(=O)Nc1cc(Cl)ccc1Cl (stereo not given)	3%	1%	0.5%	3%	-7%	-16%	-7%	-17%
COCCNC(=O)C(=O)NCC1OCCN1S(=O)(=O)c1ccc2c(c1)OCCO2 (stereo not given)	nt	1%[46.1 µM]	nt	-2%[46.1 µM]	2%	42%	-9%	3%
CN(C)c1nc2c(c(=O)n(C)c(=O)n2C)n1Cc1ccccc1	1%	1%	-3.1%	-8%	-3%	-1%	-25%	0%
CCOc1ccc(Nc2nc(Cl)nc(N3CCN(c4ccc(OC)cc4)CC3)n2)cc1	?	?	-2.9%	?	10µM*	10%	-22%	-10%
O=C(NCc1ccco1)C(c1ccccc1)N(Cc1ccccc1)C(=O)Cn1nnc2ccccc21 (stereo not given)	3%	?	-6.0%	-31%[46.1 µM]	7%	8%	12%	-4%
Nc1ccc(Br)cc1C(=O)O	4%	?	0.3%	1%	10%	14%	-6%	-10%
COC(=O)c1c(C)n(Cc2ccc3c(c2)OCO3)c2ccc(O)cc12	-29%	-21%	-2.9%	-18%	-61%	18%	?	-9%
CCOc1ccc(C2C(C#N)=C(N)Oc3cc(C)n(CCN4CCOCC4)c(=O)c32)cc1OCC (stereo not given)	4%	11%	3.7%	4%	2%	3%	41%[activator]	3%
CCn1cc(C(=O)N2CCN(c3ccccc3)CC2)c(=O)c2cc(S(=O)(=O)N(C)C)ccc21	?	-2%[46.1 µM]	-4.7%	-18%[46.1 µM]	nt	nt	-12%	nt
Cn1nccc1NC(=O)CSCC(=O)O	nt	0%	nt	14%[14.2 µM]	-1%	-2%	-12%	1%
CC(=O)OC[C@H]1O[C@@H](O/N=C(\C)CCN2CCCCc3nc(C)c(C)cc32)[C@H](OC(C)=O)[C@@H](OC(C)=O)[C@@H]1OC(C)=O	?	-3%	-4.9%	0%	8%	nt	nt	-2%
CCCCCC(=O)NC(=S)Nc1ccccc1C(=O)OC	0%	5%	-0.9%	16%	-6%	-11%	-8%	nt
Cc1ccc2[nH]c(=O)cc(C(=O)OCC(=O)c3ccc(F)cc3)c2c1	nt	19%	nt	?	nt	1%	-9%	0%
CC1CCN(c2ccccc2NC(=O)c2cc([N+](=O)[O-])ccc2N2CCOCC2)CC1	nt	?	nt	?	15%	-21%	?	10%
Cc1cc(=O)n2nc(N3CCCC(C(=O)N4CCN(c5ccccc5)CC4)C3)sc2n1 (stereo not given)	-4%	-1%	-4.4%	-9%	1%	-4%	-20%	0%
c1cnc2ccc(C(c3nnnn3C3CCCCC3)N3CCCCC3)cc2c1 (stereo not given)	-3%	?	0.7%	-16%	-15%	4%	30%[activator]	-28%
CCc1nc(SCC(=O)Nc2cc(C)on2)n[nH]1	-10%	0%	1.2%	3%	4%	-1%	12%	13%
CC(N)Cc1c[nH]c2ccc(Cl)cc12 (stereo not given)	nt	-20%	nt	?	nt	3%	?	nt
O=C(c1ccco1)N(Cc1cc2ccccc2[nH]c1=O)CC1CCCO1 (stereo not given)	-6%	2%	0.4%	5%	-1%	34%	-16%	9%
Cc1ccc(-n2cc(CN3CCN(Cc4nccn4C)CC3)c(-c3ccc(F)cc3)n2)cc1	nt	nt	nt	nt	3%	-5%	7%	-1%
COCCCNc1nc2ccccc2nc1NS(=O)(=O)c1cccs1	-10%	22%	-3.0%	0%	-5%	11%	25%	-3%
Cn1c(=O)cc(SCC(=O)NCCCN2CCN(c3ccc(F)cc3)CC2)c2ccccc21	4%	22%	-3.1%	-8%&-8%	-2%	-28%	-24%	6%
CC(NC(=O)c1ccccc1Br)c1nnc(SCc2ccc([N+](=O)[O-])cc2)n1C (stereo not given)	-5%	-16%	5.4%	22%	3%	-5%	0%	3%
O=C(COc1ccc(C(=O)c2ccccc2)cc1)NCc1ccc(F)cc1	1%	?	-8.2%	?	-38%	?	-15%	10%
COCCN1CN=C(Nc2nc(C)c3ccc(C)cc3n2)NC1	-12%	nt	-16%	2%	-3%	nt	nt	-1%
COc1ccc(CNC(=O)CN(C2CCCCC2)S(C)(=O)=O)cc1	14%	7%	-0.5%	4%	7%	-4%	-8%	-17%
Cc1ccc(N2C(=O)c3ccccc3C2Nc2ccccc2)nc1 (stereo not given)	-29%	nt	-2.9%	nt	-9%	-2%	-12%	-7%
Cc1nn(-c2ccccc2)c(Cl)c1/C=N/NC(=O)c1ccnn1C	nt	nt	nt	nt	0%	0%	47%[activator]	-5%
Cc1cccc(-n2c(CCc3ccccc3)nnc2SCC(=O)c2ccccc2)c1	-2%	?	-7.2%	?	-7%	13%	17%	-16%
O=C(O)CCCC(=O)Nc1ccccc1Br	-8%	15%	2.1%	16%[46.1 µM]	-1%	-16%	-12%	3%
CC(=O)N1CCOc2ccc(S(=O)(=O)N3CCC(C(=O)Nc4cc(C)ccc4C)CC3)cc21	nt	17%[46.1 µM]	nt	-1%[46.1 µM]	-14%	5%	-17%	0%
Cc1c(C(=O)NCc2ccco2)cccc1[N+](=O)[O-]	3%	15%	-2.1%	?	11%	5%	-12%	-4%
CCOC(=O)Nc1cccc(Cl)c1C	-12%	-9%	3.8%	23%	0%	-2%	9%	-1%
Cc1cccc(CN2CCN(c3nc4nonc4nc3NC3CC3)CC2=O)c1	nt	22%[46.1 µM]	nt	0%[46.1 µM]	-1%	2%	-13%	0%
CCn1c(SCC(=O)Nc2cc(OC)ccc2OC)nnc1C1CCCCC1	-1%	-26%	-0.4%	?	-11%	14%	nt	4%
Cc1ccc(CNC(=O)C2CCN(S(=O)(=O)c3cccs3)CC2)cc1	nt	-5%	nt	6%[46.1 µM]	-5%	-14%	-22%	2%
COc1ccc(C2(CNC(=O)c3ccc(OC)c([N+](=O)[O-])c3)CCOCC2)cc1OC	3%	3%	-0.6%	9%	3%	17%	-5%	-1%
COCC(=O)N(C)C1(c2nnnn2CCOC(=O)Nc2ccc(Cl)cc2)CCCC1	-3%	6%	-5.1%	-1%	-57%	-2%	nt	-3%
COc1cc(OC)cc(-c2nnc(NC(=O)Cc3ccc(F)cc3)o2)c1	nt	nt	nt	nt	-2%	7%	21%	-3%
CC(=O)c1cccc(NS(=O)(=O)c2cc(-c3cnc(C4CC4)o3)ccc2C)c1	23%	?	-6.1%	nt	-11%	2%	0%&13%	27%
COc1ccc(CNC(=O)COC(=O)C2CC2C)cc1OC (stereo not given)	nt	0%	nt	?	nt	-10%	?	nt
COc1cc2c(cc1OC)C(c1ccccc1)N(C(=O)c1cccc(S(C)(=O)=O)c1)CC2 (stereo not given)	nt	?	nt	-11%[46.1 µM]	11%	11%	-6%	4%
O=C(/C=C/Nc1ccccc1)c1ccccc1	-6%	?	1.6%	?	-36%	?	-30%	-22%
CC1CC(C)CN(c2nc3c(c(=O)n(C)c(=O)n3C)n2CCSc2ncccn2)C1 (stereo not given)	-8%	nt	-3.6%	nt	10%	-2%	-28%	4%
